Hsc70: Hsc70 inhibitors, probe displacement, primary screen, biochemical, fluorescence polarization (AID 568) | Hsc70 fluorescence polarization, probe displacement; higher % means a stronger effect; strong numbers were not always called active | displacement, % at 20 µM, or IC50 in µM where a hit was titrated | 83,000 tested, under 10 active;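 active = displacement above 50% without optical interference and an IC50 on retest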;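 note: ATPase domain with a fluorescein-tagged ATP probe; 0% = vehicle and 100% = excess ADP; read after one hour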
MT1-MMP promoter: inhibitors of MT1-MMP promoter transcription, cell-based, luciferase reporter, luminescence (AID 618) | actives 0.62% (n = 87,000) | calls from a first round at 10 µM; hits with a dose series show EC50 in µM | MT1-MMP promoter luciferase reporter cells, luminescence;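 active = over half of the reporter light lost at 10 µM or EC50 under 50 µM; inactive = the rest and hits that failed the dose series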;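 note: actives suppress MT1-MMP promoter-driven transcription so potencies describe inhibitors; HT1080 fibrosarcoma cells; overnight exposure; toxic or luciferase-blocking compounds were not removed from the actives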
WNV protease inh: WNV NS2B-NS3 proteinase inhibition | P06935 | WNV NS2B-NS3 protease, fluorogenic substrate Ex360/Em465; stronger effect = lower value | z-score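 (tested at a level between 10 and 100 µM)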 | actives 0.18% (n = 65,000) | AID 577;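 active = z-score at -3 or under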;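 note: score is relative to mean and spread of the compound wells of a plate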
Target sequence (P06935 1371-1501 limits assumed): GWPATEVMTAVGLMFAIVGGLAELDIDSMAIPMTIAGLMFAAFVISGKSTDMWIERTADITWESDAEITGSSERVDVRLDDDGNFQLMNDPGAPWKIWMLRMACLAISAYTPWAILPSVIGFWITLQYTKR
Target sequence (P06935 1502-1679 limits assumed): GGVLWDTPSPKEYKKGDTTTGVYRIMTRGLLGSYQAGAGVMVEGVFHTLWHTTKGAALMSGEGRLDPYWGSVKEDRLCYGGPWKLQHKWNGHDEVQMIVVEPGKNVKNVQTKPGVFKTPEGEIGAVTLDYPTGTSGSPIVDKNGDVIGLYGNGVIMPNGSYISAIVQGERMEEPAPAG
The depositor's hits bear a star; i = inactive; . = not tested or not shown. A portion of the library, so the mix of outcomes need not match the whole.

SMILES	Hsc70	MT1-MMP promoter	WNV protease inh
CC(=O)OCC(=O)[C@@]1(O)CC[C@H]2[C@@H]3CCC4=CC(=O)CC[C@]4(C)[C@H]3[C@@H](O)C[C@@]21C	-8.6%	i	-0.25
O=C1OCCC1Sc1ncnc2sc3c(c12)CCC3 (stereo not given)	-2.6%	i	0.46
COc1ccc(C2C(C#N)=C(N)OC3=C2C(=O)CC(C)C3)c(OC)c1OC (stereo not given)	4.2%	i	-0.52
c1cncc(CNc2ccc3c(c2)OCO3)c1	1.4%	i	.
O=C(N1CCOCC1)N(Cc1ccccc1)c1ccccn1	0.9%	i	-0.62
COc1ccc(C2C(C(=O)NCc3ccccn3)c3ccccc3C(=O)N2C)cc1OC (stereo not given)	-4.0%	i	-1.1
c1coc(CSCc2cn3cccnc3n2)c1	-1.9%	i	-0.44
COc1ccc(Cl)cc1C(=O)Nc1ccc2c(c1)OCO2	1.3%	i	-0.76
O=C(CCNC(=O)Cn1cnc2ccccc2c1=O)NCC1COc2ccccc2O1 (stereo not given)	-1.4%	i	-0.88
COc1ccc(C(=O)O)cc1S(=O)(=O)Nc1cccc(C)c1	-9.0%	i	-0.9
Cc1ccc(C(=O)CSc2nnc(-c3ccco3)o2)o1	3.6%	i	-0.52
O=C(CSc1ccccc1C(=O)NCCCN1CCCC1=O)NCc1ccco1	1.2%	i	-0.34
COc1cc(OC)nc(NC(=O)CN2CCN(c3ccc(F)cc3)CC2)n1	-4.3%	i	2.1
Cc1ccc(NC(=O)NCCCN2CCOCC2)cc1	1.8%	i	0.01
CCc1ccccc1S(=O)(=O)Cc1ccc(C(=O)NC(C)C)o1	4.3%	i	-0.06
Cc1ccc(N2CCN(c3ccc(C)cc3)C2c2ccncc2)cc1	-1.6%	i	0.43
CCOC(=O)c1c(NC(=O)CSc2n[nH]c(-c3ccco3)n2)sc(C)c1C	-8.5%	i	-1.2
Cc1cc(O)c(-c2cc(C(=O)NCc3ccc4c(c3)OCO4)[nH]n2)cc1C	3.8%	i	-0.47
CC1Cn2c(nnc2-c2cc3ccccc3cc2O)S1 (stereo not given)	-3.0%	i	-1.1
CC(=O)Nc1ccc(SCC(=O)N(CCC#N)c2ccc(C)cc2)cc1	6.8%	i	0.08
CCc1nc2ccccc2n1CC(=O)N1CCN(S(=O)(=O)c2cccc(C(F)(F)F)c2)CC1	2.9%	i	1.4
Oc1ccc(N2CCN(c3ncnc4sc5c(c34)CCC5)CC2)cc1	-0.1%	i	-0.19
CSC1=NC2(CCCCC2)C2=C(CCCC2)N1	-3.2%	i	-1
O=C(CCNS(=O)(=O)c1ccc(Br)cc1)NCc1ccc2c(c1)OCO2	0.8%	i	-0.14
CCCCCC(=O)NC(NC(=S)N1CCOCC1)C(Cl)(Cl)Cl (stereo not given)	-2.2%	i	.
O=C1N=C(N2CCOCC2)S/C1=C1\C(=O)N(Cc2ccccc2)c2ccc(Br)cc21	4.5%	i	-0.91
Cc1ccc(C)c(-n2c(SCC(=O)Nc3nnc(C)s3)nnc2-c2ccoc2C)c1	-6.2%	i	0.16
COC(=O)CSC1=C(C#N)C(c2cccc(OC)c2)CC(=O)N1 (stereo not given)	0.1%	i	1.1
COc1ccc(OC)c2sc(N3CCN(c4ccccc4)CC3)nc12	8.4%	i	1
Cc1cc(C)c2[nH]c(=O)c(C(c3nnnn3Cc3ccc4c(c3)OCO4)N3CCCCC3)cc2c1 (stereo not given)	-1.6%	i	0.28
O=C(Nc1ccccc1)N(CCCN1CCOCC1)Cc1ccccc1F	-1.2%	i	-0.56
CCOC(=O)c1cccc(NC(=O)CCc2nc(-c3ccccc3F)no2)c1	-8.4%	i	-0.64
Cn1c(=O)[nH]c(=O)c2c1ncn2CCN1CCCCC1	1.3%	i	0.56
O=C(Nc1cccnc1)C1CC(c2ccc(Cl)c(Cl)c2)=NO1 (stereo not given)	4.9%	i	1.7
COC(=O)c1ccc(CN2C(=O)c3ccccc3S2(=O)=O)cc1	0.3%	i	0.03
CCOCCCNC(=O)C1CCN(S(=O)(=O)N2CCCCC2)CC1	-1.6%	i	-0.81
CC(C)Sc1nnc([C@H](C)NC(=O)OC(C)(C)C)o1	-6.4%	i	0.35
COc1ccc(OC)c(-c2nnc(SCC(=O)N3CCCc4ccccc43)o2)c1	0.2%	i	-0.7
O=C1CSC(c2cn(-c3ccccc3)nc2-c2ccccc2)N1Cc1ccco1 (stereo not given)	3.1%	i	0.17
Cc1ccc(S(=O)(=O)N2CCN(C(=O)c3ccccc3)C2C(C)C)cc1 (stereo not given)	3.1%	i	1.6
NC(=O)c1ccccc1NC(=O)CCN1C(=O)c2ccccc2C1=O	-6.0%	i	.
CN(Cc1ccccc1)C(=O)C1CCN(Cc2ccc(F)cc2)CC1	2.9%	i	1.6
CCOC(=O)C(C)c1nn(C)c(=O)c2ccccc12 (stereo not given)	2.2%	i	2.3
CC1CCCN(C(=O)CSc2nnc(-c3cccnc3)n2C2CCCCC2)C1 (stereo not given)	-3.3%	i	-0.34
COc1ccc(-n2nc3c(c2NC(=O)C2CCCC2)CS(=O)C3)cc1 (stereo not given)	-1.8%	i	-1.6

Part of the list above in order of formula weight, largest number first.
SMILES	Hsc70	MT1-MMP promoter	WNV protease inh
O=C(Nc1ccccc1)N(CCCN1CCOCC1)Cc1ccccc1F	-1.2%	i	-0.56
COC(=O)c1ccc(CN2C(=O)c3ccccc3S2(=O)=O)cc1	0.3%	i	0.03
Cn1c(=O)[nH]c(=O)c2c1ncn2CCN1CCCCC1	1.3%	i	0.56

Remaining list, next part
SMILES	Hsc70	MT1-MMP promoter	WNV protease inh
CCCC1(C(=O)OCC)NC(c2ccc(N(C)C)cc2)C2C(=O)N(c3ccccc3)C(=O)C21 (stereo not given)	4.2%	i	-0.26
Cn1ncc2nnn(-c3ccccc3)c(=O)c21	-5.6%	i	-0.63
CCCCc1nc2c(=O)[nH]c3ccccc3c2o1	0.9%	i	-0.94
CC(NC(=O)c1cc(-c2ccc(Br)cc2)on1)c1ccccc1 (stereo not given)	0.6%	i	0.4
Cn1c(SCC(=O)Nc2ccc3c(c2)oc2ccccc23)nnc1-c1ccccc1	-8.1%	i	-0.13
Cn1c(SCc2cc(=O)n3cc(Br)ccc3n2)nnc1C1COc2ccccc2O1 (stereo not given)	-6.8%	i	-1.5
Cc1cc(C)nc(N2CCCC(C(=O)Nc3ccc4nc(C)c(C)nc4c3)C2)n1 (stereo not given)	-2.2%	i	-0.57
CCCc1nc(-c2ccc(-c3ccc(F)cc3)cc2)no1	2.8%	i	-1
O=C(NC(c1ccccc1)c1ccccc1)N1CCN(CCO)CC1	4.0%	i	0.96
CCn1c(SCC(=O)O)nc2sc3c(c2c1=O)CCC3	1.4%	i	0.37
Cc1c(NC(=O)C2(C)CCCCC2)c(=O)n(-c2ccccc2)n1C	0.4%	i	-0.53
Nc1ccc(S(=O)(=O)N2CCCc3ccccc32)cc1	0.0%	i	0.76
COC(=O)C1=C(C)OC(N)=C(C#N)C1c1cc(OC)ccc1OC (stereo not given)	-8.1%	i	0.81
COC(=O)C1=C(C)Nc2ncnn2C1c1ccc(OCc2ccccc2)cc1 (stereo not given)	-0.1%	i	-0.89
CCCc1cc(C(=O)NC2CCCC2)no1	2.0%	i	-0.02

By substructure: those above with a furan ring, fused or not (eight)
SMILES	Hsc70	MT1-MMP promoter	WNV protease inh
c1coc(CSCc2cn3cccnc3n2)c1	-1.9%	i	-0.44
Cc1ccc(C(=O)CSc2nnc(-c3ccco3)o2)o1	3.6%	i	-0.52
O=C(CSc1ccccc1C(=O)NCCCN1CCCC1=O)NCc1ccco1	1.2%	i	-0.34
CCc1ccccc1S(=O)(=O)Cc1ccc(C(=O)NC(C)C)o1	4.3%	i	-0.06
CCOC(=O)c1c(NC(=O)CSc2n[nH]c(-c3ccco3)n2)sc(C)c1C	-8.5%	i	-1.2
Cc1ccc(C)c(-n2c(SCC(=O)Nc3nnc(C)s3)nnc2-c2ccoc2C)c1	-6.2%	i	0.16
O=C1CSC(c2cn(-c3ccccc3)nc2-c2ccccc2)N1Cc1ccco1 (stereo not given)	3.1%	i	0.17
Cn1c(SCC(=O)Nc2ccc3c(c2)oc2ccccc23)nnc1-c1ccccc1	-8.1%	i	-0.13

The list continues.
SMILES	Hsc70	MT1-MMP promoter	WNV protease inh
Cc1ccc(S(=O)(=O)n2nc(OC(=O)C3CCCCC3)cc2N)cc1	4.2%	i	0.97
O=C(OCn1nnc2ccccc2c1=O)c1cccnc1	-2.3%	i	0.04
CCOC(=O)CCc1c(C)nc2c(c(C)nn2C(C)(C)C)c1C	3.9%	i	-1.6
Cc1onc(-c2ccccc2Cl)c1C(=O)N1CCN(c2ccccc2)CC1	-3.1%	i	-0.24
CC(=O)Nc1cc(-c2nn(C)c(=O)c3ccccc23)ccc1N1CCCCC1	2.1%	i	.
O=C(CC(NS(=O)(=O)c1ccc(Cl)cc1)c1ccco1)NCc1ccco1 (stereo not given)	-5.3%	i	2.4
COc1cc(COCC(O)CN2CCOCC2)cc(OC)c1OC (stereo not given)	2.9%	i	0.21
CCOC(=O)C1=C(C)NC(C)=C(C(=O)OCC)C1c1cc(N)ccc1OC(F)F	0.2%	i	-0.25
O=C(NCCCN1CCCCC1)c1ccc2c(=O)n(CCc3ccccc3)c(=O)[nH]c2c1	-3.7%	i	-0.0053
COc1ccc(N2CCN(C(=O)c3cc4c(-c5ccc(Cl)cc5)nn(C)c4s3)CC2)cc1	2.9%	i	-0.18
Cc1ccc(-c2nnc(SCC(=O)Nc3nccs3)n2N)cc1	2.0%	i	.
O=C(O)C1CCCN1C(=O)OCc1ccccc1 (stereo not given)	2.8%	i	-0.91
CCCCOc1ccc(-c2nnn(C(C)C(=O)OCC)n2)cc1 (stereo not given)	-2.6%	i	-0.06
O=C(Nc1ccccc1)N1CC=C(c2ccc(F)cc2)CC1	3.3%	i	-0.02
Cc1ccc(-c2nc3cc(N)ccc3o2)cc1	-0.1%	2.9µM*	1.2
COCCn1c(C)c(C(=O)O)sc1=S	0.8%	i	0.36
Cc1ccc(C(NC(N)=O)c2ccccc2)cc1 (stereo not given)	-5.0%	i	.
CCc1cc(=O)oc2cc(OCc3nn[nH]n3)ccc12	5.4%	i	-0.13
CCC(C)[C@H](NC(=O)NCc1cccc(OC)c1)C(=O)O (stereo not given in full)	-3.1%	i	0.72
C=C(C)COc1ccc(-c2n[nH]c(C)c2-c2ccccc2)c(O)c1	6.4%	i	0.47
CCOC(=O)c1cnc(SCC(=O)Nc2nnc(CC)s2)nc1N	-0.7%	i	-1.4
Cc1ccc(S(=O)(=O)NC2=NCN(CCOC(=O)c3ccc([N+](=O)[O-])cc3)CN2)cc1	2.6%	i	.
Cc1ccccc1CSc1nnc(-c2ccccn2)n1N	3.2%	i	-0.92
CC(=O)c1c(C)[nH]c(C(=O)OCC(=O)N(C)C)c1C	-1.5%	i	.
COc1cccc(C(=O)NC2CCN(CC(=O)NCc3ccccc3OC)CC2)c1	6.0%	i	-0.4
Cc1cc(C)cc(NC(=O)CSc2nnc(-c3ccccc3Br)o2)c1	1.7%	i	0.5
CCN1CCN(CCC(=O)Nc2cccc(OC)c2)CC1	-7.8%	i	.
Cc1noc(C)c1C(=O)NC(C)c1ccc2c(c1)OCO2 (stereo not given)	-2.7%	i	0.57
CSc1cccc(NC(=O)CSc2ccccc2)c1	-3.2%	i	-0.55
CCOC(=O)c1cnc2ccc(C(=O)OC)cc2c1NCc1ccco1	0.1%	i	2.2
N#Cc1nc(-c2ccccc2)oc1NCCN1CCCCC1	-3.7%	i	1.1
COc1ccc(NS(=O)(=O)c2ccc(O)c(C(=O)OCC(=O)N3CC(C)OC(C)C3)c2)cc1 (stereo not given)	-6.9%	i	-0.49
Nc1cccc(C(=O)Nc2ccco2)c1	0.0%	i	-1.2
Cc1nc(SCC(C)C)[nH]c(=O)c1Cc1ccccc1	0.6%	i	-0.69
CN(C(=O)c1ccccn1)C1(C(=O)NC2CCCCC2)CCCCC1	1.6%	i	.
O=C(Cc1cn2ccsc2n1)OCc1ccccc1	-3.4%	i	-0.89
COC(=O)COc1ccc(S(=O)(=O)N2CCOCC2)cc1	2.2%	i	-1
CC(C)c1nc(SCc2ccccn2)c2c(=O)n(C)c(=O)n(C)c2n1	-3.2%	i	0.89
COc1ccccc1C1CC(c2ccc(Cl)cc2)Nc2ncnn21 (stereo not given)	4.4%	i	-0.52
O=C1c2ccccc2C(=O)N1CCCc1nc(-c2ccccn2)no1	3.0%	i	-0.31
CCCS(=O)(=O)N1CCCC(C(=O)NCCc2ccc(Cl)cc2)C1 (stereo not given)	4.0%	i	-0.75
CC(NC(=O)c1ccccc1NC(=O)c1ccco1)c1ccccc1 (stereo not given)	-5.4%	i	0.95
OC1(c2cccnc2)CCN(Cc2nnnn2C2CCCCC2)CC1	6.0%	i	0.97
O=C(NCc1ccccn1)c1ccc(COc2ccc(Cl)cc2)o1	-0.3%	i	0.37
CCn1c(SCC(=O)Nc2nccs2)nnc1-c1ccc(C)cc1	-2.9%	i	0.62
CC(C)OC(=O)CSc1nnc(-c2ccccn2)n1C	-6.5%	i	-0.27
O=C(CCCc1ccccc1)NCCCN1CCOCC1	1.8%	i	-0.93
Cc1cc2c(ccc3[nH]onc32)n1	11%	i	-0.56
Cc1cccc(NC(=O)CSc2nnc(-c3ccc(S(=O)(=O)N4CCOCC4)cc3)n2C)c1	-0.4%	i	1

Source: PubChem BioAssay
